Mtb H37Rv: M. tuberculosis H37Rv growth inhibitors, H37Rv strain (AID 1626) | M. tuberculosis H37Rv growth inhibition; higher % means a stronger effect | inhibition, % at 10 µM, or IC50 in µM where a hit was titrated | 220,000 tested, 0.95% active;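 active = confirmed in a dose series; inconclusive = inhibition above 80% but not taken into the dose series; inactive = below 80% or under 30% at every dose of the series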;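 also: bacteria incubated seven days before Alamar blue readout; 0% = bacteria only wells and 100% = bacteria with antibiotic wells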
Arbovirus inh: antivirals against arbovirus infection | arbovirus infection cell-based antiviral screen | inhibition, % at 10 µM | 200,000 tested, 0.37% active | AID 1251;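 active = inhibition from about 30%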;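 also: bluetongue infection of BSR cells; cell survival read as ATP light after 72 h; 0% = infected wells without compound and 100% = uninfected wells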
RecA intein inh: blocks M. tuberculosis RecA intein splicing | P9WHJ3 | cell-free RecA intein splicing, fluorescence | inhibition, %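 (about 9 µM by stock and volumes)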 | 290,000 tested, 0.75% active; in the data active = inhibition above about 30%; inconclusive = no clear call, values can overlap the other calls;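 also: 0% = vehicle wells and 100% = reference inhibitor control wells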
Target sequence (P9WHJ3 whole entry, looked up): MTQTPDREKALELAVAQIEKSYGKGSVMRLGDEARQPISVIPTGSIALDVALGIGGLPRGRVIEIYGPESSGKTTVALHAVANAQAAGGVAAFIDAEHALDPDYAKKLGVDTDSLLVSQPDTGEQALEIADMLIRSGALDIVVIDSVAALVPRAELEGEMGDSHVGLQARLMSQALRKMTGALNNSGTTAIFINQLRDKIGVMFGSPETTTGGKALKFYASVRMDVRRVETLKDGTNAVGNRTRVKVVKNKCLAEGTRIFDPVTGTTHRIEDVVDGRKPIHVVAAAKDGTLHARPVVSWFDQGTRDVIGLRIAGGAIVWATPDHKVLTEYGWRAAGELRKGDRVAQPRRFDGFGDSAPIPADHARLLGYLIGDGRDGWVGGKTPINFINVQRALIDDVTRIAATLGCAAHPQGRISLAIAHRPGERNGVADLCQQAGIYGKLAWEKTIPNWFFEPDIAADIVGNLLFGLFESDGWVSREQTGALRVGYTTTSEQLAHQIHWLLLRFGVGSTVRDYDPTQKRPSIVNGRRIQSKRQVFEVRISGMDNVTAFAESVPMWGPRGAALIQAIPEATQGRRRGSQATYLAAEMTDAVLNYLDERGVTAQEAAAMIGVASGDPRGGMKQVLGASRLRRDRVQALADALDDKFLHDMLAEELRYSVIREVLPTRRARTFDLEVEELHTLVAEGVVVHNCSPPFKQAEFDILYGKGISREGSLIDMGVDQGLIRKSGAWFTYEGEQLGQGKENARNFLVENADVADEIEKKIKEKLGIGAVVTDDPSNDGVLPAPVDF
Mtb bLac sens: beta-lactam sensitization of Mtb H37Rv; AID 434955; 330,000 tested, 0.27% active; inhibition, % at 25 µM; M. tuberculosis H37Rv growth with meropenem, percent inhibition; hits of this screen are not shown here;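 active = about 74% or more and at least 40 points above the plate without the antibiotic, then above 30% in a dose series; inconclusive = first-round hits that could not be retested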;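 also: growth measured after seven days incubation then overnight dye step; 0% = bacteria only wells and 100% = bacteria with antibiotic; twin plates without the antibiotic show which effects depend on it; some results filed as inactive read as strong as hits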
YopH PTP inh: inhibitors of Yersinia enterocolitica YopH tyrosine phosphatase. fluorescence Ex485/Em525. inhibition, %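 (about 10 µM by stock and volumes)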. 140,000 tested, 0.16% active. AID 898;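 active = inhibition of 50% or more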;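 also: controls were vehicle for no effect and minimum signal wells for full effect; inactives centre near -20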
Arbovirus inh repeat: further read-out of Arbovirus inh, marked with its call; inhibition, %; measured here: 10K subset replicate screen; many hits read low in the repeat;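 first of two repeat runs on a subset; 0% = infected and 100% = uninfected wells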
* hit, by the source's call; ? = inconclusive; . = no result given; & = joins results of further samples. These rows are one share of the data; rates above refer to the full screens.

Start of the data: the first five records, to show the layout:
SMILES	Mtb H37Rv	Arbovirus inh	RecA intein inh	Mtb bLac sens	YopH PTP inh	others
CCOc1ccccc1N1CSC2=C(C#N)C(c3c(OC)ccc4ccccc34)CC(=O)N2C1 (stereo not given)	8%	0	11	-6	90*	Arbovirus inh repeat=-2
CCOC(=O)c1c(C)n(C)c2ccc(OC)c(NC(=O)CCN3CCC(Cc4ccccc4)CC3)c12	15%	.	0.1	-6	.
CCCNS(=O)(=O)c1ccc(OCC(=O)N2CCC(C(=O)OCC)CC2)cc1	-12%	6	2.1	-9	-28
CCOc1ccc(S(=O)(=O)N2CCOCC2)cc1NC(=O)CSC(=S)N1CCCC1	.	.	-0.9	-3	.
COc1cccc(Oc2ccc(N/C=C/C(=O)C(C)(C)C)cc2)c1	1%	6	-0.7	10	-27

All compounds of this part (from the top)
SMILES	Mtb H37Rv	Arbovirus inh	RecA intein inh	Mtb bLac sens	YopH PTP inh	others
CCOc1ccccc1N1CSC2=C(C#N)C(c3c(OC)ccc4ccccc34)CC(=O)N2C1 (stereo not given)	8%	0	11	-6	90*	Arbovirus inh repeat=-2
CCOC(=O)c1c(C)n(C)c2ccc(OC)c(NC(=O)CCN3CCC(Cc4ccccc4)CC3)c12	15%	.	0.1	-6	.
CCCNS(=O)(=O)c1ccc(OCC(=O)N2CCC(C(=O)OCC)CC2)cc1	-12%	6	2.1	-9	-28
CCOc1ccc(S(=O)(=O)N2CCOCC2)cc1NC(=O)CSC(=S)N1CCCC1	.	.	-0.9	-3	.
COc1cccc(Oc2ccc(N/C=C/C(=O)C(C)(C)C)cc2)c1	1%	6	-0.7	10	-27
Cc1ccc(F)cc1NC(=O)N1CCN(C2c3ccccc3-c3ccccc32)CC1	.	.	-0.3	-7	.
O=C(O)CCCNC(=O)/C=C/c1ccco1	3%	1	3.6	17	.
COCCn1c(SCc2ccccc2Cl)nc2c1c(=O)[nH]c(=O)n2C	1%	3	-5.7	11	-11
COc1ccc(NS(=O)(=O)c2cc(NC(=O)c3ccncc3)ccc2N2CCOCC2)cc1	2%	-2	0.8	7	-24
O=[N+]([O-])c1ccccc1S(=O)(=O)NCc1cccnc1	-2%	-3	-0.4	-1	.
CCOC(=O)c1c(C)[nH]c(C(=O)N/N=C/c2cccc(OC)c2)c1C	.	-26	2.6	-1	-16
CCOCCCNC(=O)c1ccc(-n2c(=S)[nH]c3ccccc3c2=O)cc1	-3%	-6	10	-9	.
O=C(NC1CC1)C1=NOC(CNc2ncc(C(F)(F)F)cc2Cl)C1 (stereo not given)	-3%	-3	5.9	-9	-10
O=C(Nc1ccc2oc(=O)ccc2c1)c1cccnc1	-5%	2	0.7	-1	-24
CCCCC(=O)Nc1nnc(C2=COCCO2)o1	2%	-6	1.1	12	.
O=C1c2ccccc2NC(c2cccc(Cl)c2)N1N=C1CCCCCC1 (stereo not given)	-6%	0	3.8	-4	-28
O=C(Nc1ccc2[nH]ncc2c1)c1ccc(F)cc1	.	.	2.1	-3	.
O=C(CS(=O)(=O)Cc1ccccc1)Nc1ccccc1Cl	-8%	0	.	0	-16
COc1ccccc1N1CCN(C(=O)CCc2c[nH]c3ccccc23)CC1	5%	-4	2.1	-2	.
NC(=O)c1ccc(NC(=O)CSc2nncn2-c2ccccc2)cc1	.	.	-4.7	3	.
COCCN(C(=O)COC(=O)C1COc2ccccc2O1)c1c(N)n(Cc2ccccc2)c(=O)[nH]c1=O (stereo not given)	.	.	-1.3	5	.
Cc1ccc(NC(=O)Cn2c(O)c(N=NC(=O)c3cc4ccccc4cc3O)c3ccccc32)cc1	8%	-12	.	-4	-21
COC(=O)CCN(C(=O)c1ccc2c(c1)OCO2)c1ccccn1	4%	7	1.5	-6	-16
CCn1cnc2cc(NCc3nc4ccccc4n3C)ccc21	13%	-6	-4.5	0	-49
Cc1onc(-c2ccccc2Cl)c1C(=O)Nc1ccc(OCC(=O)N2CCOCC2)cc1	5%	5	.	1	-4	Arbovirus inh repeat=-1

In the list so far, three contain fluorine:
SMILES	Mtb H37Rv	Arbovirus inh	RecA intein inh	Mtb bLac sens	YopH PTP inh	others
Cc1ccc(F)cc1NC(=O)N1CCN(C2c3ccccc3-c3ccccc32)CC1	.	.	-0.3	-7	.
O=C(NC1CC1)C1=NOC(CNc2ncc(C(F)(F)F)cc2Cl)C1 (stereo not given)	-3%	-3	5.9	-9	-10
O=C(Nc1ccc2[nH]ncc2c1)c1ccc(F)cc1	.	.	2.1	-3	.

Further results follow.
SMILES	Mtb H37Rv	Arbovirus inh	RecA intein inh	Mtb bLac sens	YopH PTP inh	others
CC(C)(C)OC(=O)N1CCC[C@H]1C(=O)Nc1ccc(C#N)cc1	.	.	-0.1	-6	.
COc1cccc(/C=N/NC(=O)c2cc3c(OC)cccc3[nH]2)c1O	4%	-35	-1.6	-2	-43
CCC(C)N(C(=O)CSc1nnc(NC(C)C)s1)C1CCS(=O)(=O)C1 (stereo not given)	.	.	1.2	-6	.
CC1(CCc2ccccc2)NC(=O)N(CC(=O)Nc2ccccc2)C1=O (stereo not given)	-8%	.	0.0	-9	.
Cc1ccc(S(=O)(=O)Nc2cccc(-c3ccc(N4CCCCCC4)nn3)c2)cc1	.	.	10	33	.
COC(=O)CP(=O)(c1ccccc1)c1ccccc1	0%	5	-2.6	-1	-27
CCOc1c(Br)cc(C2NS(=O)(=O)N=C3CCCCCN32)cc1OC (stereo not given)	-4%	0	0.2	-2	-46
Cc1ccccc1Nc1nc(Nc2ccccc2C)nc(SC2=NCCS2)n1	5%	-25	7.9	12	2
C=CCNC(=O)/C(=C/c1ccco1)NC(=O)c1ccc(Br)o1	1%	5	-2.9	-9	-17
COC(=O)c1cc(C(=O)OC)cc(N2C(=O)CC(NNC(=O)c3ccccc3Br)C2=O)c1 (stereo not given)	-5%	2	.	-10	-40
O=C(CN1CCC(n2nnc3cc(F)ccc32)CC1)NC1CCCCC1	1%	0	2.7	?	-36
CCOC(=O)c1oc2ccccc2c1NC(=O)C1CCCCC1	0%	2	-1.7	4	-12
N/C(COc1ccc(Cl)cc1Cl)=N\O	-1%	.	0.5	62	.
COc1ccc(C(=O)c2oc3ccc(Br)cc3c2NC(C)=O)cc1	3%	0	-1.9&-0.3	4	-32	Arbovirus inh repeat=-10
O=c1[nH][nH]c(-c2ccccc2)c1C=Nc1ccc(Cl)cc1	-1%	-4	2.7	-5	-5
COc1ccc2oc(C)c(NC(C)=O)c2c1	-4%	-2	0.5	0	-32
CCOc1ccc2nc(NC(=O)CN3C(=O)NC4(CCCC4)C3=O)sc2c1	.	.	-3.4	-13	.
COc1cc(NC(=O)c2ccccc2Cl)c2ncccc2c1	.	.	5.6	12	.
O=C(CSCCS(=O)(=O)c1ccc(Cl)cc1)Nc1ccccc1	-5%	.	0.4	4	.
CC(C)N1CCC(N2CCN(Cc3ccc4nsnc4c3)CC2CCO)CC1 (stereo not given)	-4%	-2	1.5	-1	.
COCCNC(=O)c1ccccc1NC(=O)COc1ccccc1	-3%	-1	0.3	6	-31
COc1ccccc1N(C(=O)c1snc(C(N)=O)c1N)C(C(=O)NC1CCCCC1)c1cccc(OC)c1OC (stereo not given)	.	.	4.5	60	.
c1csc(-c2nnc(NC3CCCCC3)c3ccccc23)c1	11%	-19	10	0	-13
Cc1ccc(C)c(N2CCN(C(=O)C3CCN(S(=O)(=O)c4c(C)noc4C)CC3)CC2)c1	9%	.	4.1	36	.
Nc1cccc(-c2nc3cc(S(=O)(=O)c4ccc5oc(-c6cccc(N)c6)nc5c4)ccc3o2)c1	-1%	15	-0.5	16	4

Not a retest: an excerpt of the list.
SMILES	Mtb H37Rv	Arbovirus inh	RecA intein inh	Mtb bLac sens	YopH PTP inh	others
COc1ccccc1N(C(=O)c1snc(C(N)=O)c1N)C(C(=O)NC1CCCCC1)c1cccc(OC)c1OC (stereo not given)	.	.	4.5	60	.
c1csc(-c2nnc(NC3CCCCC3)c3ccccc23)c1	11%	-19	10	0	-13
Cc1ccc(C)c(N2CCN(C(=O)C3CCN(S(=O)(=O)c4c(C)noc4C)CC3)CC2)c1	9%	.	4.1	36	.
Nc1cccc(-c2nc3cc(S(=O)(=O)c4ccc5oc(-c6cccc(N)c6)nc5c4)ccc3o2)c1	-1%	15	-0.5	16	4

Later entries
SMILES	Mtb H37Rv	Arbovirus inh	RecA intein inh	Mtb bLac sens	YopH PTP inh	others
Clc1ccccc1N1CCN(Cc2c[nH]c3ccccc23)CC1	.	.	-3.4	79	.
CC1CCCCC1NC(=O)NC(=O)CCl (stereo not given)	10%	12	34*	99	-23
O=C(CSc1ccc(Cl)cc1)Nc1cccc(-c2nc3ccccc3[nH]2)c1	-5%	-15	-5.1	1	-22
C=CCN1C(=O)C(Cc2cccc(Cl)c2)S/C1=N/N=C/c1ccco1 (stereo not given)	0%	-2	1.9	-8	-43
O=C(OCn1nnc2ccccc2c1=O)c1ccc2ccccc2n1	-8%	6	-3.1	.	-42
Cc1cc(C)n(C)c(=O)c1C#N	-8%	-3	.	0	.
Cc1cc(NC(=O)COC(=O)COc2ccc(C(=O)c3ccccc3)cc2)no1	23%	5	2.2	99	-19
Cc1noc(C)c1S(=O)(=O)N(CC(=O)N1CCCC1)c1ccc(C(C)C)cc1	-10%	18	.	6	-49	Arbovirus inh repeat=2
CCOC(=O)c1ccc(Oc2cn[nH]c2-c2ccc(O)cc2O)cc1	6%	.	2.1	-1	.
CCn1cc(Cl)c(C(=O)Nc2cccc(C(F)(F)F)c2)n1	4%	9	-9.6	7	.
CCOc1ccc(S(=O)(=O)Nc2ccccc2C(=O)NCC2CCCO2)cc1 (stereo not given)	-2%	7	-1.0	-9	-43	Arbovirus inh repeat=-1
O=C(CN1CCN(c2ccc(F)cc2)CC1)N1CCC(Cc2ccccc2)CC1	-1%	8	1.7	62	-35
Cc1ccc(C(=O)NCc2ccccn2)cc1NC1=NC2CS(=O)(=O)CC2S1 (stereo not given)	.	.	3.7	3	.
O=C(/C=C/c1ccco1)NC(=S)Nc1ccccc1N1CCCC1	2%	13	-5.9	4	.
O=C(Oc1ccc2c(c1)C(=O)c1ccccc1CO2)c1ccccc1	36%	1	8.3	-2	-11
Cc1ccc(NC2c3ccccc3C(=O)N2CCN2CCOCC2)cc1 (stereo not given)	-9%	5	-2.8	-11	-57
COc1cc(-c2nnc(-c3cccs3)o2)cc(OC)c1OC	-4%	-3	-0.4	23	-27
CCN(CC)CCNC(=O)c1ccc(NC(=O)Nc2cccc3ccccc23)cc1	.	.	1.0	3	.
CC(=O)c1c(C)[nH]c(C(=O)OCC(=O)Nc2cc(C(F)(F)F)ccc2N2CCOCC2)c1C	6%	-23	-1.3	0	-30
COc1ccccc1N(CC(=O)Nc1ccc2c(c1)OCCO2)S(C)(=O)=O	-8%	1	-3.9	-4	-1
Cc1ccc(S(=O)(=O)N2CCN=C2SCc2c(F)cccc2Cl)cc1	.	.	-1.3	?	.
COc1ccc(Cc2noc(CN(C)CCN3CCc4ccccc4C3)n2)cc1OC	4%	3	0.6	3	.
CC(=O)c1oc2ccccc2c1NC(=O)COC(=O)c1ccc(-n2nc(C)cc2C)cc1	.	.	0.7	7	.
CCCOc1ccc(C(=O)OCC(=O)c2c(N)n(C)c(=O)n(C)c2=O)cc1OC	1%	3	0.9	3	.
COc1ccc2sc(N(CCN(C)C)C(=O)c3cc(Cl)sc3Cl)nc2c1	12%	10	1.7	-6	.
c1cc(CNc2ccc3c(c2)OCO3)ccn1	10%	-11	0.4	-8	36

Compound activity as filed in PubChem BioAssay.
